# Vaccinia stage – blocks a specific stage of Vaccinia orthopoxvirus infection; Vaccinia-infected cells, mCherry/Venus stage reporter fluorescence; stronger effect = lower value; some inactives read as strong as hits; activity change (mCherry), % (test concentration not listed); 89,000 compounds, 0.01% hits;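 active means mCherry past -33% and 40 or more points under the early reporter, replicates agreeing; inconclusive means past -33% without that gap or agreement; tested in A549 cells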;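 further: scaled between vehicle wells and reference inhibitor wells; 23 nL library stock went into each well; one replicate is shown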
# Vaccinia stage Venus – second read-out of Vaccinia stage, no call of its own (marks repeat the call); activity change (Venus), %; measured here: Venus reporter, other viral stage;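 negative = less Venus signal; first of two replicates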
# * marks the source's active call; other numbers are inactive results; u = inconclusive; x = not tested or not shown; & = joins results of further samples. An excerpt; rates above refer to the full screens.
SMILES,Vaccinia stage,Vaccinia stage Venus
CN1CCN(C(=O)C[C@@H]2CC[C@H]3[C@@H](COC[C@H](O)CN3Cc3ccc(Oc4ccccc4)cc3)O2)CC1,-19,-17
CN1C(=O)c2cc(NC(=O)Cc3cccs3)ccc2OC[C@H]2O[C@H](CC(=O)O)CC[C@H]21,-9,2
CCN1[C@H](C(=O)NCC2CC2)[C@@H](CO)[C@@H]2Cn3c(ccc(-c4ccccc4OC)c3=O)[C@@H]21,6,7
O=C(C[C@H]1CC[C@@H]2[C@H](COC[C@H](O)CN2C(=O)c2ccc(F)cc2)O1)NCCCN1CCOCC1,10,5
Cc1noc(C)c1NC(=O)N(C)C[C@@H]1Oc2ccc(NC(=O)Nc3ccccc3)cc2CC(=O)N([C@H](C)CO)C[C@H]1C,1,9
O=C(C[C@@H]1CC[C@@H]2[C@H](COC[C@@H](O)CN2Cc2cccc(C(F)(F)F)c2)O1)NCCc1ccncc1,-5,-3
C[C@@H]1CN([C@@H](C)CO)S(=O)(=O)c2ccc(C#C[C@@H](C)O)cc2O[C@H]1CN(C)CC1CCOCC1,0,3
C[C@H](CO)N1C[C@H](C)[C@@H](CN(C)CC2CCCCC2)Oc2ccc(NC(=O)c3ccncc3)cc2CC1=O,-27,-15
CO[C@@H]1CN(C)C(=O)c2cc(NC(=O)c3cccc(F)c3)ccc2OC[C@H](C)N(C)C[C@@H]1C,2,0
C[C@H](CO)N1C[C@H](C)[C@@H](CN(C)Cc2ccncc2)Oc2c(NC(=O)c3ccc(-c4nccs4)cc3)cccc2C1=O,17,14
Cc1noc(C)c1NC(=O)N1C[C@H](O)COC[C@@H]2O[C@H](CC(=O)NCC3CCCCC3)CC[C@H]21,-2,-2
COc1ccc(NC(=O)N(C)C[C@@H]2Oc3ccc(NC(=O)Nc4ccccc4)cc3CC(=O)N([C@H](C)CO)C[C@H]2C)cc1,16,15
C[C@H]1CN([C@@H](C)CO)C(=O)c2c(c3ccccc3n2C)-c2ccccc2CO[C@@H]1CN(C)Cc1cccc(C(F)(F)F)c1,u,x
C[C@H](CO)N1C[C@H](C)[C@H](CN(C)C(=O)Cc2cccnc2)Oc2ncc(Br)cc2C1=O,18,9
C[C@H](CO)N1C[C@H](C)[C@H](CN(C)S(=O)(=O)c2ccccc2)Oc2ccc(NC(=O)Nc3ccccc3)cc2C1=O,1,3
COc1cccc(C(=O)Nc2ccc3c(c2)C(=O)N(C)[C@@H]2CC[C@H](CC(=O)N[C@@H](C)c4ccccc4)O[C@@H]2CO3)c1,22,13
C[C@@H]1CN([C@@H](C)CO)C(=O)Cc2cc(NC(=O)C3CCCCC3)ccc2O[C@@H]1CN(C)C,5,6
C[C@H](CO)N1C[C@H](C)[C@@H](CN(C)Cc2ccc(Oc3ccccc3)cc2)Oc2c(NC(=O)C3CC3)cccc2C1=O,-32,-21
C[C@@H]1CN([C@@H](C)CO)C(=O)c2cc(NC(=O)C3CC3)ccc2O[C@@H]1CN(C)Cc1ccccc1,-7,1
C[C@@H]1CN([C@@H](C)CO)C(=O)c2cc(-c3cccnc3)cnc2O[C@@H]1CN(C)C(=O)C1CCOCC1,25,8
CO[C@@H]1CN(C)C(=O)c2ccc(NC(=O)c3nc4ccccc4s3)cc2OC[C@@H](C)NC[C@@H]1C,u,x
O=C(C[C@@H]1CC[C@@H]2[C@H](COC[C@@H](O)CN2Cc2ccccc2F)O1)NC1CCC1,-2,4
COc1ccc(NC(=O)Nc2ccc3c(c2)C(=O)N([C@H](C)CO)C[C@H](C)[C@H](CN(C)S(=O)(=O)c2cccs2)OCCCC[C@H](C)O3)cc1,-28,-10
C[C@@H]1CN([C@H](C)CO)C(=O)c2cccc(NS(=O)(=O)c3ccc(F)cc3)c2O[C@H]1CN(C)CC1CC1,5,13
COc1ccc(S(=O)(=O)N(C)C[C@@H]2OCCCC[C@@H](C)Oc3ccc(NC(=O)c4ccncc4)cc3C(=O)N([C@@H](C)CO)C[C@@H]2C)cc1,20,8
CO[C@@H]1CN(C)C(=O)c2ccc(NC(=O)c3cnccn3)cc2OC[C@H](C)N(CCc2ccccc2)C[C@H]1C,-3,7
C[C@H]1CN([C@@H](C)CO)C(=O)c2cccc(NS(=O)(=O)c3cn(C)cn3)c2O[C@H]1CN(C)C,13,6
Cc1noc(C)c1NC(=O)Nc1ccc2c(c1)CC(=O)N([C@@H](C)CO)C[C@@H](C)[C@H](CN(C)S(=O)(=O)c1c(C)noc1C)O2,17,7
C[C@@H]1CCCCO[C@H](CN(C)C(=O)Cc2ccccc2)[C@H](C)CN([C@@H](C)CO)C(=O)c2cc(NC(=O)Nc3ccc4c(c3)OCO4)ccc2O1,-9,-13
C[C@H]1CN([C@@H](C)CO)C(=O)Cc2cc(NC(=O)CCC(F)(F)F)ccc2O[C@@H]1CN(C)Cc1ccc(-c2ccccc2)cc1,-27,-15
COCC(=O)N1[C@@H]2Cn3c(ccc(C4=CCCC4)c3=O)[C@H]1[C@@H](C(=O)OC)[C@@H]2CO,8,11
O=C(NCC[C@@H]1CC[C@@H](NS(=O)(=O)c2ccc(Cl)cc2)[C@H](CO)O1)c1ccc2c(c1)OCO2,2,4
Cc1noc(C)c1NC(=O)N1C[C@H](O)COC[C@@H]2O[C@@H](CC(=O)NCC3CC3)CC[C@H]21,-3,9
CNC(=O)C[C@@H]1CC[C@H]2[C@H](COc3ccc(NS(=O)(=O)c4cccc(F)c4)cc3C(=O)N2C)O1,1,-3
C[C@@H]1CN([C@@H](C)CO)C(=O)Cc2cc(NC(=O)CCC(F)(F)F)ccc2O[C@H]1CN(C)Cc1ccc(-c2ccccc2)cc1,u,x
O=C(C[C@H]1CC[C@@H]2[C@H](COC[C@@H](O)CN2C(=O)Cc2ccccc2)O1)NC1Cc2ccccc2C1,7,9
CC(=O)N1[C@H](CO)[C@H](c2ccc(-c3ccccc3)cc2)[C@@H]1CNC(=O)NC(C)C,7,15
CCC(=O)N(C)C[C@H]1Oc2cc(C#CC(C)(C)O)ccc2S(=O)(=O)N([C@H](C)CO)C[C@@H]1C,25,18
C[C@H]1CN([C@@H](C)CO)C(=O)c2cccc(NS(=O)(=O)c3cccs3)c2O[C@@H]1CN(C)C(=O)Nc1ccc2c(c1)OCO2,7,6
CC(C)CC#Cc1cnc2c(c1)C(=O)N([C@@H](C)CO)C[C@@H](C)[C@H](CN(C)C(=O)c1ccccc1)O2,-13,-13

# Shown with two lines to a compound: part of the list above.
# Each structure is followed by: Vaccinia stage | Vaccinia stage Venus
C[C@@H]1CN([C@H](C)CO)C(=O)c2cccc(NS(=O)(=O)c3ccc(F)cc3)c2O[C@H]1CN(C)CC1CC1
 : 5 | 13
COc1ccc(S(=O)(=O)N(C)C[C@@H]2OCCCC[C@@H](C)Oc3ccc(NC(=O)c4ccncc4)cc3C(=O)N([C@@H](C)CO)C[C@@H]2C)cc1
 : 20 | 8
CO[C@@H]1CN(C)C(=O)c2ccc(NC(=O)c3cnccn3)cc2OC[C@H](C)N(CCc2ccccc2)C[C@H]1C
 : -3 | 7
C[C@H]1CN([C@@H](C)CO)C(=O)c2cccc(NS(=O)(=O)c3cn(C)cn3)c2O[C@H]1CN(C)C
 : 13 | 6
Cc1noc(C)c1NC(=O)Nc1ccc2c(c1)CC(=O)N([C@@H](C)CO)C[C@@H](C)[C@H](CN(C)S(=O)(=O)c1c(C)noc1C)O2
 : 17 | 7

# (continued)
SMILES,Vaccinia stage,Vaccinia stage Venus
C/C=C/c1ccc([C@H]2[C@@H](CNC(C)=O)N(C(=O)Cc3ccncc3)[C@H]2CO)cc1,8,14
C[C@@H]1CN([C@@H](C)CO)S(=O)(=O)c2ccc(C#Cc3cccnc3)cc2O[C@@H]1CN(C)C,-2,-4
C[C@H]1CN([C@@H](C)CO)C(=O)Cc2cc(NS(=O)(=O)c3ccc(F)cc3)ccc2O[C@H]1CN(C)Cc1ccc(Oc2ccccc2)cc1,u,x
CC(C)NC(=O)N(C)C[C@H]1Oc2cc(Br)ccc2S(=O)(=O)N([C@@H](C)CO)C[C@H]1C,13,4
C[C@H](O)C#Cc1cnc2c(c1)C(=O)N([C@@H](C)CO)C[C@@H](C)[C@H](CN(C)Cc1ccc(-c3ccccc3)cc1)O2,u,x
Cc1ccccc1S(=O)(=O)NCC[C@@H]1CC[C@@H](NC(=O)C2CCCCC2)[C@H](CO)O1,-9,-11
O=C(C[C@H]1CC[C@H]2[C@@H](COC[C@H](O)CN2C(=O)c2ccncc2)O1)NC1CCC1,13,-1
COc1ccc(S(=O)(=O)Nc2ccc3c(c2)C(=O)N([C@@H](C)CO)C[C@H](C)[C@@H](CN(C)S(=O)(=O)c2ccccc2)O3)cc1,24,22
C[C@H]1CN([C@@H](C)CO)C(=O)c2cc(NC(=O)Cc3ccccc3)ccc2O[C@@H]1CN(C)Cc1ccccc1,12,4
CO[C@@H]1CN(C)C(=O)c2ccc(NC(=O)c3cnccn3)cc2OC[C@H](C)NC[C@H]1C,7,5
O=C(C[C@H]1C[C@@H]2c3cc(NC(=O)c4ccc5c(c4)OCO5)ccc3O[C@@H]2[C@H](CO)O1)NCC1CC1,18,14
C[C@@H]1CN([C@H](C)CO)C(=O)c2cc(NC(=O)Nc3ccc4c(c3)OCO4)ccc2O[C@@H](C)CCCCO[C@H]1CN(C)S(=O)(=O)c1ccc(Cl)cc1,-2,1
CC(=O)N(C)C[C@H]1Oc2ncc(-c3cccnc3)cc2C(=O)N([C@H](C)CO)C[C@@H]1C,24,13
CNC[C@@H]1Oc2c(NS(=O)(=O)c3cn(C)cn3)cccc2C(=O)N([C@@H](C)CO)C[C@H]1C,16,2
C[C@H]1CN([C@@H](C)CO)C(=O)c2cccc(NS(=O)(=O)c3cccs3)c2O[C@H]1CN(C)C(=O)NC1CCCCC1,10,-4
CCC(=O)N1[C@@H]2c3cccc(=O)n3C[C@@H]2[C@@H](CO)[C@@H]1C(=O)N1CCc2ccccc2C1,-9,-3
CCC(=O)N1[C@H](CO)[C@@H](c2ccc(-c3ccccc3C)cc2)C12CN(C(C)=O)C2,7,4
O=C(C[C@@H]1CC[C@H]2[C@@H](COC[C@@H](O)CN2Cc2ccccc2)O1)NCCCN1CCOCC1,4,1
C[C@@H]1CN([C@@H](C)CO)C(=O)c2cc(NS(C)(=O)=O)ccc2O[C@@H]1CN(C)C(=O)Nc1cccc2ccccc12,27,15
C[C@@H]1CN([C@@H](C)CO)C(=O)Cc2cc(NC(=O)Cc3cn(C)c4ccccc34)ccc2O[C@H]1CN(C)CC1CC1,-16,-15
O=C(Nc1cccc(Cl)c1)N1[C@@H]2CNC[C@H]1C2c1ccc(/C=C/c2ccccc2)cc1 (stereo partly drawn),-3&-21,5&-20
Cc1ccc(S(=O)(=O)N[C@H]2C=C[C@@H](CC(=O)NC3CCCCC3)O[C@H]2CO)cc1,-12,-3
CC(C)NC(=O)N(C)C[C@@H]1Oc2c(NC(=O)Nc3ccc(F)cc3)cccc2C(=O)N([C@@H](C)CO)C[C@H]1C,8,13
C[C@H]1CCCCO[C@@H](CN(C)C(=O)CCCN(C)C)[C@@H](C)CN([C@@H](C)CO)C(=O)c2cc(NC(=O)Cc3ccccc3)ccc2O1,18,-3
C[C@@H]1CN([C@H](C)CO)C(=O)Cc2cc(NC(=O)C3CC3)ccc2O[C@@H]1CN(C)Cc1ccc(Cl)c(Cl)c1,u,x
O=C(C[C@@H]1CC[C@H]2[C@@H](COC[C@H](O)CN2S(=O)(=O)c2ccccc2)O1)N1CCOCC1,12,11
COc1ccc2c3c(n(C)c2c1)[C@@H](CO)N(Cc1ccccc1OC)CC31CCN(CC2CCOCC2)CC1,-21,-19
C[C@H](CO)N1C[C@H](C)[C@H](CN(C)Cc2ccc(Oc3ccccc3)cc2)Oc2ccc(NC(=O)C3CC3)cc2CC1=O,-20,-12
CO[C@H]1CN(C)C(=O)c2cc(NC(=O)c3ccccc3)ccc2OC[C@@H](C)N(C(=O)C2CC2)C[C@H]1C,4,11
Cc1ccc(S(=O)(=O)N[C@H]2CC[C@@H](CC(=O)NC3CCCCC3)O[C@H]2CO)cc1,8,11
C[C@@H]1CN([C@H](C)CO)C(=O)Cc2cc(NC(=O)Nc3cccc4ccccc34)ccc2O[C@@H]1CN(C)CC1CCCCC1,-22,-10
C[C@@H]1CCCCO[C@H](CN(C)C(=O)Nc2ccc3c(c2)OCO3)[C@H](C)CN([C@@H](C)CO)C(=O)c2cc(NC(=O)Nc3ccccc3)ccc2O1,6,6
C[C@H]1CCCCO[C@@H](CN(C)S(=O)(=O)c2cn(C)cn2)[C@@H](C)CN([C@@H](C)CO)C(=O)c2cc(NC(=O)Nc3ccc(F)cc3)ccc2O1,23,5
CC(C)CC#Cc1ccc([C@H]2[C@@H](CO)N3C(=O)CN(C(=O)c4cnccn4)C[C@H]23)cc1,-26,-29
CO[C@H]1CN(C)C(=O)c2ccc(NS(C)(=O)=O)cc2OC[C@H](C)N(Cc2nccs2)C[C@@H]1C,1,6
C[C@H]1CN([C@@H](C)CO)C(=O)Cc2cc(NC(=O)C3CC3)ccc2O[C@@H]1CN(C)CC1CCCCC1,-15,-13
C[C@H](CO)N1C[C@H](C)[C@@H](CN(C)Cc2ccc(Cl)c(Cl)c2)Oc2ccc(NS(=O)(=O)c3ccc(Cl)cc3)cc2CC1=O,u,x
COc1ccccc1-c1cnc2c(c1)C(=O)N([C@H](C)CO)C[C@@H](C)[C@@H](CN(C)CC1CCOCC1)O2,5,0

# In another format: 3 of the compounds above.
> C[C@@H]1CN([C@H](C)CO)C(=O)Cc2cc(NC(=O)C3CC3)ccc2O[C@@H]1CN(C)Cc1ccc(Cl)c(Cl)c1
  Vaccinia stage = u
  Vaccinia stage Venus = x
> C[C@@H]1CN([C@H](C)CO)C(=O)Cc2cc(NC(=O)Nc3cccc4ccccc34)ccc2O[C@@H]1CN(C)CC1CCCCC1
  Vaccinia stage = -22
  Vaccinia stage Venus = -10
> C[C@H](CO)N1C[C@H](C)[C@H](CN(C)Cc2ccc(Oc3ccccc3)cc2)Oc2ccc(NC(=O)C3CC3)cc2CC1=O
  Vaccinia stage = -20
  Vaccinia stage Venus = -12
